Bioassay records (PubChem)
KCNQ2 pot: potentiators of rat KCNQ2 potassium channel. CHO-K1 KCNQ2, FluxOR thallium flux fluorescence; active compounds read high. AID 2239, 2010. Potassium voltage-gated channel subfamily KQT member 2 (Rattus norvegicus), O88943. B-score at 10 µM. 310,000 compounds, 0.54% hits;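 active = fluorescence ratio B-score at least 3 SD of library B-scores, with initial fluorescence B-score within 3 SD, cut at about 5.3 in these data; same plate scores as AID 2156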;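 also: B-score of peak minus minimum over baseline fluorescence ratio after K+ and Tl+ stimulus; positive B-score means potentiation of KCNQ2 with more thallium influx and brighter signal; only the inactives scoring about 0 or higher are listed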
Target sequence (O88943 whole entry, looked up): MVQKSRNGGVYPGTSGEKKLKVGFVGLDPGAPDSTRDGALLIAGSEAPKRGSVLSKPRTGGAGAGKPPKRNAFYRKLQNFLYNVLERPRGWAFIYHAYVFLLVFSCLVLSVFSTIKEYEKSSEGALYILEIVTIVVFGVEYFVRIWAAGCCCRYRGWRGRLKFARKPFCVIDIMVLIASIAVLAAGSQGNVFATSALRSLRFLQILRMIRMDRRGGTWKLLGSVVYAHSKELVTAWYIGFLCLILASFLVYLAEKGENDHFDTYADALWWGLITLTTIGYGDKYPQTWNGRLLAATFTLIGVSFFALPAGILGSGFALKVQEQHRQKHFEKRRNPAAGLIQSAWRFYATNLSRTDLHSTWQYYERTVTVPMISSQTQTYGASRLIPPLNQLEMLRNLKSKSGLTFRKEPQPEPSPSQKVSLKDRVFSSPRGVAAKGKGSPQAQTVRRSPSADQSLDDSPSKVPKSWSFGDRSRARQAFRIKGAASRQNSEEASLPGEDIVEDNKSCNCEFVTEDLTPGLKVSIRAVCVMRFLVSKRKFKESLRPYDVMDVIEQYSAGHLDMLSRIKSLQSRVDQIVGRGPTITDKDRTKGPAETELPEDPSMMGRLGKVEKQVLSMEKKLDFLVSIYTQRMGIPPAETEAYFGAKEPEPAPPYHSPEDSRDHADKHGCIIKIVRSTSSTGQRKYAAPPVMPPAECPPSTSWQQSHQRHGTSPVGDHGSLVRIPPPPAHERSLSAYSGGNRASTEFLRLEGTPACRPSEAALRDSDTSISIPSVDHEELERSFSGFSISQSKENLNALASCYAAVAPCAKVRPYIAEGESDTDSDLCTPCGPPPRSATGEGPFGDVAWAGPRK
KCNQ2 pot baseline: second read-out of KCNQ2 pot, no call of its own (marks repeat the call); B-score; compound at 10 µM; measured here: initial fluorescence intensity artifact check;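 brightness before thallium and not channel activity; 0 = typical well and far values either way flag optical interference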
* marks the source's active call; other numbers are inactive results; . = not tested or not shown; & = joins results of further samples. An excerpt; rates above refer to the full screens.

Below each SMILES – KCNQ2 pot	KCNQ2 pot baseline
O=C1CC(N2CC=C(c3ccccc3)CC2)C(=O)N1c1ccc(F)cc1 (centres undefined)
→ 2.5	-1.1
CC(=O)N1CC(=O)Nc2ccc(Cl)cc2C1c1ccccc1 (centres undefined)
→ 1.1	1.8
CC(C)(C)c1ccc(O)c(N=Cc2c(O)ccc3ccccc23)c1
→ 2.1	-0.11
CC1CCC(C)(NS(=O)(=O)OCC(Cl)(Cl)Cl)CC1 (centres undefined)
→ 1.2	-0.21
COc1ccc(OC)c([C@@H](O)[C@H](C)NC(C)(C)C)c1
→ 0.71	-0.38
O=c1[nH]c(=O)n(Cc2ccccc2Cl)c(O)c1C=Nc1ccc(F)cc1
→ 0.3	-0.36
BrCC1C[n+]2c(SCc3ccccc3)nc3sc4c(c3c2O1)CCCC4 (centres undefined)
→ 1.6	-1.7
C[C@@H]1O[C@@H](O[C@H]2C[C@@H](O)[C@]3(CO)[C@H]4[C@H](O)C[C@]5(C)[C@@H](C6=CC(=O)OC6)CC[C@]5(O)[C@@H]4CC[C@]3(O)C2)[C@H](O)[C@H](O)[C@H]1O
→ 2.7	1
CCOC(=O)c1cc(C)sc1/N=C/C1C(=O)NC(=S)NC1=O
→ 1	0.28
CCC(=O)c1cc(F)c(N2CCN(CC)CC2)cc1C
→ 0.32	-1.6
Cc1ccc2c(c1)N(C(C)C(=O)N1CCC3(CC1)OCCO3)C(=O)CO2 (centres undefined)
→ 0.32	-0.72
O=C(NCCN1CCOCC1)c1ccc(Cl)nc1Cl
→ 1.1	-0.01
CC12CN3CC(C)(CN(C1)C3c1cccs1)C2=O (centres undefined)
→ 0.02	-0.44
COC(=O)CC1=C(C(=O)OC)C2(C(=O)N(C)c3ccccc32)C(C#N)=C(N)O1 (centres undefined)
→ 0.03	-2
Cn1c[n+](C)cc1C(O)c1ccccc1 (centres undefined)
→ 0.03	.
O=C(NC(Cc1ccccc1)C(=O)N1CCC2(CC1)OCCO2)C1CCCCC1 (centres undefined)
→ 0.54	2.1
C[N+]1(C)[C@@H]2CC[C@H]1CC(OC(=O)C(c1ccccc1)c1ccccc1)C2 (some centres undefined)
→ 0.18	-0.11
C[N+]1(C)C2CCC1CC(OC(=O)c1ccccc1)C2 (centres undefined)
→ 1.9	0.24
CN(N)N=Nc1nc2c([nH]1)c(=O)n(C)c(=O)n2C
→ 1.6	0.22
O=C1NC(=O)C(CCc2ccncc2)(C2CCCCC2)C(=O)N1
→ 0.17	1.2

(list continues)
Below each SMILES – KCNQ2 pot	KCNQ2 pot baseline
COc1ccc(NC(=O)N2CCC3(CC2)OCCO3)cc1OC
→ 0.13	0.01
Cn1c(=O)cc(OCCCC(=O)N2CCC3(CC2)OCCO3)c2ccccc21
→ 0.36	0.01
O=C(COc1ccccc1)N1CCN(Cc2c[nH]c3ccccc23)CC1
→ 0.03	-1.1
CCC[N+]12CCC(CC1)C(=C(c1ccccc1)c1ccccc1)C2
→ 0.61	-1.9
Cc1nc2ccccn2c1P(=S)(N1CCCCC1)N1CCCCC1
→ -5.5	.
COc1ccc(CCn2c(O)c(C=NC3CC3)c(=O)[nH]c2=O)cc1OC
→ 2.7	-0.38
OC12Oc3ccccc3C=C1N1CCC2CC1 (centres undefined)
→ 0.69	-0.1
CCOc1ccc(-n2c(O)c(C=NCCN(CC)CC)c(=O)[nH]c2=O)cc1
→ 0.57	1.4
CCOC(=O)c1ccc(N=C(c2ccccc2)c2c(O)n(C)c(=O)n(C)c2=O)cc1
→ 0.06	0.91
COc1cccc(C(=O)C2CCCN(Cc3ccc(F)cc3)C2)c1 (centres undefined)
→ 1.5	-2.4
CC(C)c1ccc(OCC(=O)N2CCN(C)CC2)c(Br)c1
→ 0.14	0.17
CC(=O)OC1C2CCCC1C(N1CCCC1)CC2 (centres undefined)
→ 0.25&0.29	0.57&-0.67
CC1CN(O)C2CCc3nonc3C12O (centres undefined)
→ 0.01	-1.4
CNC(=O)NC(O)C(Cl)(Cl)Cl (centres undefined)
→ 0.1	-1.9
Cc1ccc2c(c1)CC1(CN2C)C(=O)NC(=O)N(c2cc(C)ccc2C)C1=O (centres undefined)
→ 0.02	1.2
O=C(CN1CCCCC1)c1ccc(F)cc1
→ 0.26	1.4
CCCOP(=O)(O)c1c([N+](=O)[O-])cc(C(F)(F)F)cc1[N+](=O)[O-] (tested in a mixture with another compound)
→ 0.89	0.01
O=C(c1ccc(Cl)cc1)N1CCC2(CC1)OCCO2
→ 1.7	-1.6
O=C(COc1ccccc1)N1CCN(CCN2C(=O)c3cccc4cccc(c34)C2=O)CC1
→ 1.2	-0.75
CCN1C[C@]2(CO)CC[C@H](OC)[C@@]34C5C[C@H]6[C@H](OC)C5[C@](O)(C[C@H]6OC)[C@@](O)(C(OC)C23)[C@@H]14 (some centres undefined)
→ 1.2	0.73

A run of entries from further up, as a working copy:
Below each SMILES – KCNQ2 pot	KCNQ2 pot baseline
CC(=O)OC1C2CCCC1C(N1CCCC1)CC2 (centres undefined)
→ 0.25&0.29	0.57&-0.67
CC1CN(O)C2CCc3nonc3C12O (centres undefined)
→ 0.01	-1.4

Further entries:
Below each SMILES – KCNQ2 pot	KCNQ2 pot baseline
CC[N+]12CCC(CC1)C(C(O)(c1ccccc1)c1ccccc1)C2 (centres undefined)
→ 0.05	2.7
COc1ccc(CC(C)NC2CCCCCC2)cc1 (centres undefined)
→ 0.5	-0.02
COc1ccc(N2C(=O)NC(=O)/C(=C/c3cccc(OC(=O)c4cccs4)c3)C2=O)cc1Cl
→ 0.27	-0.77
CC(=NC(C)c1ccccc1)c1c(O)[nH]c(=O)[nH]c1=O (centres undefined)
→ 0.89	0.37
CCOC(=O)N(c1ccccc1)P1(=S)OCCO1
→ 0.4	-1.1
C=COCCn1c(C)c(C(C)=O)c2cc(O)ccc21
→ 0.84	0.53
COP(=O)(OC)C(Nc1ccccn1)c1ccccc1 (centres undefined)
→ 1.1	-0.69
O=C1NC(=S)NC(=O)C1C1CCCCC1
→ 0.39	-0.87
CC(C)c1ccc(N=Nc2c(O)[nH]c(=O)[nH]c2=O)cc1
→ 0.91	-1.1
Cn1cccc1/C=C1\C(=O)NC(=O)N(Cc2ccco2)C1=O
→ 0.28	-0.27
COc1ccc(CCNCc2ccc(C)s2)cc1OC
→ 1.4	-0.49
CN1CCCN(c2ccc([N+](=O)[O-])nc2)CC1
→ 0.67	-0.1
CCCCCn1c(=O)c(C(=O)Nc2cnccn2)c(O)c2ccccc21
→ 0.57	-3.1
CCOC(=O)C(NC(=O)CCl)(Nc1ccc(C(O)(C(=O)OCC)C(F)(F)F)cc1)C(F)(F)F (centres undefined)
→ 0.48	1.1
CN(C)C1C(=O)C(C(N)=O)=C(O)C2(O)C(=O)C3=C(O)c4c(O)cccc4C(C)(O)C3C(O)C12 (centres undefined)
→ 0.39	-0.23
CCCCn1c(O)c(C(=O)/C=C/c2ccc3c(c2)OCO3)c(=O)[nH]c1=O
→ 0.03	-0.58
Cc1ccccc1C1=NCC(=O)N(CC(=O)N2CCCCC2)c2sc(C)c(C)c21
→ 0.28	-0.29
CCCCOP(=O)(CN1CCOCC1)OCCCC
→ 1.2	-0.53
CC(C)NS(=O)(=O)c1ccc(OCC(=O)N2CCN(C)CC2)cc1
→ 1.4	0.27
CCN1CCN(Cc2cc3c(cc2[N+](=O)[O-])OCO3)CC1
→ 0.43	-0.96

(list continues)
Below each SMILES – KCNQ2 pot	KCNQ2 pot baseline
N/C(=N\[N+](=O)[O-])NCCCC(NC(=O)CNC(=O)c1ccccc1)C(=O)O (centres undefined)
→ 1.1	-0.11
CN1CCC(n2nccc2N)CC1
→ 1.9	-0.09
COc1ccccc1/C=N/N=C(/N)N[N+](=O)[O-]
→ 0.11	-0.07
Cc1ccc(N/N=C/c2c(O)n(-c3ccccc3)c(=O)[nH]c2=O)cc1
→ 0.01	-1.3
C=C1C(=O)O[C@@H]2C[C@@H](C)[C@@H]3C4OC4C(=O)[C@@]3(C)[C@@H](O)[C@H]12 (some centres undefined)
→ 4.8	-0.39
O=C1NC(=O)C(=Cc2coc3ccccc3c2=O)C(=O)N1
→ 0.9	-0.09
COc1ccc(CC(=O)Nc2ccc(C#N)c(Cl)c2)cc1S(=O)(=O)N1CCOCC1
→ 0.93	-1.8
O=C1Nc2ccc(Br)cc2C(c2ccccc2)=NC1O (centres undefined)
→ 1.5	0.13
CC(C)COP(=O)(OCC(C)C)C(O)c1cccnc1 (centres undefined)
→ 0.33	-0.3
CCOC(=O)C1(CCOc2ccccc2)CCN(Cc2cccc(O)c2)CC1
→ 0.76	1.4
CN1C[C@H](CO)C=C2c3cccc4[nH]cc(c34)C[C@H]21
→ 0.69	1.8
COCCOC(=O)C1=C(N)Oc2c(c(=O)oc3ccccc23)C1c1ccncc1 (centres undefined)
→ 0.26	-0.49
C[C@]12CCC3C(CCC4=C/C(=N/OCC(=O)NC(CCC(N)=O)C(=O)O)CC[C@@]43C)C1CCC2O (some centres undefined)
→ 0.98	-0.19
CN1CC[C@@]2(C)c3cc(O)ccc3N(C)C2O1 (some centres undefined)
→ 1.5	0.25
Cc1cc(/C=C2/C(=O)NC(=O)N(Cc3ccco3)C2=O)c(C)n1-c1ccccc1O
→ 1.1	2.5
COc1cc(C(c2c(O)c3ccccc3oc2=O)c2c(C)n(C)n(-c3ccccc3)c2=O)ccc1O (centres undefined)
→ 0.01	1.5
O=C1CC(=O)N(c2ccccc2F)C(=O)N1
→ 0.13	-0.01
CCCc1nnc(NC(=O)CCC(=O)N2CCN(CCOC(c3ccccc3)c3ccccc3)CC2)s1
→ 0.04	-0.07
Cc1ccc(S(=O)(=O)NC(CC(=O)N2CCC3(CC2)OCCO3)c2ccco2)cc1 (centres undefined)
→ 0.16	-1.6
O=C(O)c1[nH]c(=O)[nH]c(=O)c1F
→ 0.13	0.53

More results:
Below each SMILES – KCNQ2 pot	KCNQ2 pot baseline
CCOC(=O)c1c(N)n(CCCOC(=O)c2ccco2)c2nc3ccccc3nc12
→ 1.3	-1.1
CCNC(=O)NC(=O)C(C)OC(=O)c1c(C)nn(Cc2ccccc2)c1Cl (centres undefined)
→ 0.46	-0.15
Cn1c(=O)c2c(nc(N/N=C/c3c(O)n(-c4ccccc4)c(=S)[nH]c3=O)n2C)n(C)c1=O
→ 0.8	-0.47
CCCC1(CCC)C(=O)NC(=Nc2ccc(C)cc2)NC1=O
→ 0.27	-1.7
Cc1ccc2nc(-c3ccncc3)cc(C(=O)N3CCC4(CC3)OCCO4)c2c1
→ 0.08	-0.74
CC(C)(C)c1ccc(OC(=O)N2CCCCC2)cc1
→ 0.04	1.2
C[C@H](N)CN1CCc2ccc(Br)cc21
→ 0.14	1.2
Cc1ccc2cccc(OC(=O)N3CCCC3)c2n1
→ 0.45	0.07
Cc1c(CC(=O)N2C[C@H]3C[C@@H](C2)c2cccc(=O)n2C3)c(=O)oc2cc(O)c(Cl)cc12
→ 1.2	-2
CCC(C)N1C(=O)NC(=O)C2(Cc3cc(C)ccc3N(C)C2)C1=O (centres undefined)
→ 0.02	-1.7
COc1ccc(CN2CCN(Cc3ccccc3F)CC2)cc1
→ 0.01	-0.71
COc1ccc2[nH]cc(CCNCc3cccnc3)c2c1
→ 1	-0.36
O=C(Cc1ccccc1)OCC(=O)c1ccccc1
→ 0.05	0.82
CC(Cc1ccccc1)NC(=O)NC(C)Cc1ccccc1 (centres undefined)
→ 0.12	1.1
CCOc1ccccc1NC(=O)N1CCC2(CC1)OCCO2
→ 0.25	2.1
CCn1c(P(C)(=O)O)nc2ccccc21
→ 2	1.6
C=CCn1cc(C=C2C(=O)N(C)C(=O)N(C)C2=O)c2ccccc21
→ 0.72	0.29
CC[N+]12CCC(CC1)C(=C(c1ccccc1)c1ccccc1)C2
→ 0.04	-0.21
O=C1C2CCCN2C(c2cccnc2)N1c1cccc(Cl)c1 (centres undefined)
→ 1.3	-3.2
CC(C)Cc1nc(N2CCNCC2)c(C#N)c2c1CCC2
→ 1.5	0.19

(next part)
Below each SMILES – KCNQ2 pot	KCNQ2 pot baseline
Cc1ccc(S(=O)(=O)CC(=O)c2cc(C)c(OC(=O)N(C)C)c(C)c2)cc1
→ 1.2	-0.51
CCCCn1c(O)c(C(CC)=Nc2ccc(OCC)cc2)c(=O)[nH]c1=O
→ 0.02	-0.83
CCCC(C)n1[nH]c(=O)c2c1NC(=O)CSC2c1ccc(OC)c(OC)c1 (centres undefined)
→ 1.6	-0.08
CC1=CC(=O)C2=C(C)CC(O)C3C(C)C(=O)OC3C12 (centres undefined)
→ 0.27	0.64
O=C1NC(=O)C(CCc2ccncc2)(CCc2ccncc2)C(=O)N1Cc1ccccc1
→ 0.42	0.28
O=C1Nc2ccccc2Sc2ccccc21
→ 1.3	-0.95
O=C(Cc1ccccc1)NC(Oc1ccccc1Cl)C(Cl)(Cl)Cl (centres undefined)
→ 1.1	-0.01
O=C(CCn1c(=O)oc2ccccc21)N1CCC2(CC1)OCCO2
→ 0.16	1.4
CC(NS(C)(=O)=O)c1nnc2n1-c1ccc(Br)cc1C(c1ccccc1Cl)=NC2 (centres undefined)
→ 0.83	-0.03

Quoted at random: seven compounds from above, in no set order.
Below each SMILES – KCNQ2 pot	KCNQ2 pot baseline
CC1=CC(=O)C2=C(C)CC(O)C3C(C)C(=O)OC3C12 (centres undefined)
→ 0.27	0.64
O=C(Cc1ccccc1)NC(Oc1ccccc1Cl)C(Cl)(Cl)Cl (centres undefined)
→ 1.1	-0.01
O=C1Nc2ccccc2Sc2ccccc21
→ 1.3	-0.95
CCCC(C)n1[nH]c(=O)c2c1NC(=O)CSC2c1ccc(OC)c(OC)c1 (centres undefined)
→ 1.6	-0.08
O=C(CCn1c(=O)oc2ccccc21)N1CCC2(CC1)OCCO2
→ 0.16	1.4
Cc1ccc(S(=O)(=O)CC(=O)c2cc(C)c(OC(=O)N(C)C)c(C)c2)cc1
→ 1.2	-0.51
CCCCn1c(O)c(C(CC)=Nc2ccc(OCC)cc2)c(=O)[nH]c1=O
→ 0.02	-0.83
